Source: PubChem BioAssay
MenB inh: M. tuberculosis MenB inhibitors, primary screen, biochemical, absorbance | 1,4-dihydroxy-2-naphthoyl-CoA synthase (Mycobacterium tuberculosis (strain ATCC 25618 / … | inhibition, %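 (about 12 µg/mL by stock and volumes)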 | MenB enzyme assay, absorbance read-out; some hits fall short of the stated cut | AID 540299, 2011 | hit rate 0.43% among 100,000;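 active means mean of two replicates above 30%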;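 further: 0% = no compound and 100% = wells with inactive enzyme; the first replicate is given; strong numbers were not always called active; inactives centre near -10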
PV pol inh: poliovirus RdRp elongation inhibitors, primary screen, biochemical, fluorescence polarization, total intensity; Genome polyprotein (Poliovirus type 1 (strain Mahoney)), P03300; poliovirus polymerase elongation; active compounds read low; % elongation, % (compound at 16.7 µg/mL); hit rate 0.66% among 150,000; AID 588519, 2011; in the data active means % elongation below about 90%; further: some results filed as inactive read as strong as hits
Target sequence (P03300 1749-2209 limits assumed): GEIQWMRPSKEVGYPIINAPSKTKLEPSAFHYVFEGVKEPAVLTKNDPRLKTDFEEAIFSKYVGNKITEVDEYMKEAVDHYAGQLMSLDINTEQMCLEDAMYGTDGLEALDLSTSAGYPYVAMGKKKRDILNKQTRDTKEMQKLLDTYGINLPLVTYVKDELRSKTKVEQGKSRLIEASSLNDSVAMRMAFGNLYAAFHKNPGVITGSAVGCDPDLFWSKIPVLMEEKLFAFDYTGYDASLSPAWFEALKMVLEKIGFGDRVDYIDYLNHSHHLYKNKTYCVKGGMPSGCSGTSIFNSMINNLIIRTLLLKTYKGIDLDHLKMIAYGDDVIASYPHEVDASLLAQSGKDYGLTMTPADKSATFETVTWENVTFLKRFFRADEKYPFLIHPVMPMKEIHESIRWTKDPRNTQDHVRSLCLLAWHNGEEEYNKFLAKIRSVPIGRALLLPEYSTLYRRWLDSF
Mtb MbtI inh: MbtI salicylate synthase inhibitors, primary screen, biochemical, fluorescence intensity | P9WFX0 | purified MbtI enzyme, fluorescence intensity read-out | inhibition, %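 (about 17 µg/mL by stock and volumes)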 | hit rate 0.89% among 100,000;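 active means above 50% in both replicates, above 80% if mildly self-fluorescent; inactive means the rest, strongly fluorescent compounds included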;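 further: 0% = mean of negative and 100% = mean of positive controls; one replicate is shown; some compounds called inactive have numbers as strong as hits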
Target sequence (P9WFX0 whole entry, looked up): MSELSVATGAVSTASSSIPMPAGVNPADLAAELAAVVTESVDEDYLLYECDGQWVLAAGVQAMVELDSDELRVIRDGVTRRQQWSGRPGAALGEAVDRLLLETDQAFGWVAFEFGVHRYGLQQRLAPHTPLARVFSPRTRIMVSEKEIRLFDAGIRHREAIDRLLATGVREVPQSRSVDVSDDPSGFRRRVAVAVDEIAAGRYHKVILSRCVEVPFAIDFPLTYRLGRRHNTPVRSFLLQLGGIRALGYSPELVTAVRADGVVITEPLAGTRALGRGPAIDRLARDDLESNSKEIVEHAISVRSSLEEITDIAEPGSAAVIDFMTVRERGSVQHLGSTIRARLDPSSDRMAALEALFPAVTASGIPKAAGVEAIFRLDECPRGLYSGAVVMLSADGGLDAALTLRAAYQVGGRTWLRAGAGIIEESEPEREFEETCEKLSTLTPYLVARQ
PV pol inh intensity: recorded beside PV pol inh, whose call it bears; % elongation; measured here: total intensity read-out; formula for this scale not given here;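 total fluorescence in place of polarization; lower means less elongation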
* hit, by the source's call; · = not tested or not shown; & = joins results of further samples.

Every second line gives: MenB inh, PV pol inh, PV pol inh intensity, Mtb MbtI inh
1: COCCNC(=O)CN1CCC(c2nc3ccccc3s2)CC1
    -8.2, 104.0, 114.0, -9.8
2: CC1CCCC(NS(=O)(=O)c2ccc3[nH]c4c(c3c2)CCCC4)C1C (configuration not stated)
    -6.2, 103.0, 108.0, 3.9
3: Cn1c(CN2CCCC2)nc2cc(NS(=O)(=O)c3ccc(F)cc3)ccc21
    -25.1, 104.0, 101.0, 1.3
4: CCOc1ccccc1N1CCN(C(=O)c2ccc3c(c2)S(=O)(=O)N=C2CCCCCN23)CC1
    -14.2, 101.0, 96.0, -4.9
5: O=C(O)c1ccccc1C1SCC(=O)N1NC(=S)Nc1ccccc1 (configuration not stated)
    -20.1, 108.0, 104.0, ·
6: O=C(Nc1csc(Cc2c(Cl)cccc2Cl)n1)NN1CCOCC1
    7.8, 106.0, 109.0, -9.9
7: COc1ccc(NC(=O)CN2C(=O)CSCC2=O)cc1
    -11.3, 102.0, 108.0, -0.2
8: CC(Sc1nc(N)cc(=O)[nH]1)C(=O)Nc1ccc(S(N)(=O)=O)cc1 (configuration not stated)
    -35.2, 99.0, 101.0, -6.0
9: CCN(C(=O)c1cc2c(s1)-c1ccccc1SC2)c1ccccc1
    -27.2, 104.0, 109.0, 3.2
10: O=C(COC(=O)c1cc(-c2ccccc2)nc2ccccc12)NC1CC1
    ·, 101.0, 106.0, 1.0
11: CCN(CC)C(=O)NCc1ccc(OC)cc1
    -8.3, 103.0, 104.0, -8.3
12: c1coc(-c2nc(-c3cccs3)no2)c1
    -29.2, 106.0, 104.0, 3.0
13: O=C1c2ccccc2NC2(CCCCC2)N1Cc1ccco1
    21.0, 104.0, 102.0, 89.7
14: O=C1CC(C(=O)N2CCc3ccccc32)CN1c1ccccc1 (configuration not stated)
    -14.9, 107.0, 102.0, -9.4
15: COc1ccc(C(=O)CC(C#Cc2ccccc2)CC(=O)c2ccc(OC)cc2)cc1
    -7.7, 102.0, 107.0, -16.0
16: O=C(CCCSc1nc2ccccc2[nH]1)N1CCN(CC(=O)N2CCCC2)CC1
    -1.5, 105.0, 102.0, 8.0
17: CCOC(=O)c1cccc2ncccc12
    -60.9, 99.0, 96.0, 96.0*
18: COc1ccc(S(=O)(=O)N2CCN(c3cccc4[nH]ccc34)CC2)cc1OC
    -24.3, 102.0, 100.0, -11.6
19: c1ccc2oc(CCCc3nc4ccccc4o3)nc2c1
    -13.8, 101.0, 98.0, -4.0
20: COc1ccc(C(=O)OC2CCCCC2CN(C)C)cc1 (configuration not stated)
    ·, 101.0, 95.0, -4.1
21: CNC(=O)CNC(=O)Nc1ccc(Cl)c(Cl)c1
    -0.3, 103.0, 108.0, 4.3
22: S=c1nc[nH]c2c1[nH]c1ccccc12
    -87.8, 99.0, 103.0, 88.3
23: CSc1ccccc1NC1=NCCC1
    -4.1, 101.0, 108.0, 5.6
24: CN(CCC#N)c1ccc(/C=C(\C#N)C(=O)C(C)(C)C)cc1
    -304.2, 148.0, 150.0, 11.6
25: CCc1[nH]c(C(=O)O)c(C)c1C(=O)OC
    5.5, 101.0, 102.0, -7.0
26: Nc1ncnc2c1ncn2CCN1CCCCC1
    -21.4, 103.0, 101.0, -2.2
27: CC(=O)Nc1ccc(S(=O)(=O)N2CCC(NC(=O)Nc3cccc(F)c3)CC2)cc1
    18.7, 100.0, 101.0, -0.2
28: O=C(/C=C/c1ccco1)N1CCCSC1=Nc1ccccc1
    0.8, 105.0, 107.0, -2.4
29: CCCC(=O)Nc1cccn(Cc2ccccc2Br)c1=O
    24.1, 103.0, 103.0, 13.2
30: CCC(NS(=O)(=O)c1ccc(OC)cc1)C(=O)NCc1ccccc1OC (configuration not stated)
    -18.2, 102.0, 101.0, -5.2

Entries by screen from the list.
Mtb MbtI inh, compounds 7–17: -0.2, -6.0, 3.2, 1.0, -8.3, 3.0, 89.7, -9.4, -16.0, 8.0, 96.0*
MenB inh, compounds 7–17: -11.3, -35.2, -27.2, ·, -8.3, -29.2, 21.0, -14.9, -7.7, -1.5, -60.9
PV pol inh intensity, compounds 7–17: 108.0, 101.0, 109.0, 106.0, 104.0, 104.0, 102.0, 102.0, 107.0, 102.0, 96.0

Looked up by compound from above:
Every second line gives: MenB inh, PV pol inh, PV pol inh intensity, Mtb MbtI inh
11: CCN(CC)C(=O)NCc1ccc(OC)cc1
    -8.3, 103.0, 104.0, -8.3
5: O=C(O)c1ccccc1C1SCC(=O)N1NC(=S)Nc1ccccc1 (configuration not stated)
    -20.1, 108.0, 104.0, ·

(listing goes on)
Every second line gives: MenB inh, PV pol inh, PV pol inh intensity, Mtb MbtI inh
31: O=C(Cc1cccs1)Nc1ccc(-c2nnc(-c3ccccc3)o2)cc1
    -10.0, 101.0, 103.0, 88.0
32: CCN(CC)C(=O)n1c(Cc2ccccc2)nc2ccccc21
    17.9, 100.0, 102.0, -2.8
33: N#Cc1ccc(-n2cnc3ccccc3c2=O)cc1C#N
    -19.0, 102.0, 103.0, -3.9
34: COC(=O)c1ccc(C2N=C(c3ccccc3C)NO2)cc1 (configuration not stated)
    2.9, 108.0, 109.0, -5.2
35: COc1cccc(OC)c1C(=O)O/N=C(\N)c1cccc(C)c1
    -3.7, 99.0, 101.0, 7.1
36: O=C1OC(COc2ccccc2)CN1c1ccccc1 (configuration not stated)
    ·, 101.0, 103.0, -6.0
37: CCc1c(O)nc2ccccn2c1=O
    12.3, 107.0, 108.0, -0.1
38: CC1CCCN(S(=O)(=O)c2ccc3ccccc3c2)C1 (configuration not stated)
    -11.4, 101.0, 104.0, 11.5
39: O=c1c(Cl)c(N2CCN(c3ccccc3)CC2)cnn1-c1ccccc1
    4.9, 103.0, 102.0, -2.7
40: CN(C)c1ccc(/C=N/c2nc3ccccc3o2)cc1
    -3.0, 112.0, 127.0, -9.1
41: O=C(CSc1nc2ccccc2[nH]1)Nc1ccccc1F
    11.3, 100.0, 102.0, -1.9
42: O=C(c1cc2c(Cl)ccc3c2n1CCO3)N1CCC(N2CCCCC2)CC1
    -3.5, 102.0, 103.0, -21.9
43: COc1ccccc1N(Cc1csc(-c2ccccc2)n1)S(=O)(=O)c1cccs1
    -27.5, 103.0, 104.0, -7.2
44: O=C(Nc1ccccc1Cl)c1cc2c(s1)CCC2
    ·, 102.0, 98.0, 4.5
45: CCCN(CCC)C(=O)c1cnn(-c2ccc(C)c(C)c2)c1NC(C)=O
    -9.2, 99.0, 103.0, -6.2
46: CCOC(=O)/C(C#N)=N\Nc1cc(C)cc(C)c1
    -60.2, 105.0, 100.0, -11.8
47: O=C(CSc1ccccc1Cl)Nc1ccc(N2CCOCC2)cc1
    ·, 101.0, 102.0, 24.4
48: CC(C)(C)C/C(=N/O)c1ccccc1
    7.4, 101.0, 99.0, -7.8
49: CC1=C(C#N)C(NC(=O)c2ccncc2)(C(F)(F)F)C(=O)N1 (configuration not stated)
    12.0, 101.0, 104.0, -5.8
50: C(=N\NC1=NCCCCC1)/c1cn(-c2ccccc2)nc1-c1cccnc1
    -19.3, 89.0, 101.0, 3.5
51: CCCN(CCC)C(=O)CSc1ccc(C)cc1
    -14.3, 101.0, 102.0, 17.9
52: Brc1cc2c(cc1CSc1nnc(Cc3ccccc3)o1)OCO2
    1.8, 103.0, 97.0, -8.7
53: CC(=O)Nc1cccc(C2=Nc3ccccc3SC(c3ccccc3)C2)c1 (configuration not stated)
    -33.5, 100.0, 102.0, 13.9
54: S=c1[nH]nc(-c2ccccc2)n1CC1CCCO1 (configuration not stated)
    -0.1, 104.0, 104.0, -28.4
55: CCC(Sc1nc2c(sc3ccccc32)c(=O)n1CCc1ccccc1)C(=O)N1CCOCC1 (configuration not stated)
    -17.6, 103.0, 98.0, 6.2
56: c1ccc2[nH]c(NC3=NCCCCC3)nc2c1
    1.8, 95.0, 96.0, 19.1
57: Cc1ccc(S(=O)(=O)c2nc(S(C)(=O)=O)sc2N(C)C)cc1
    -2.8, 98.0, 102.0, ·
58: O=C(c1cccc(C(F)(F)F)c1)N1CC(=O)N(CCc2ccccc2)C(=O)C1
    -12.6, 104.0, 104.0, -1.9
59: Cc1cccc(N2CCN(C(=O)Cn3c(=O)[nH]c4ccsc4c3=O)CC2C)c1 (configuration not stated)
    -30.8, 99.0, 102.0, -2.2
60: O=C(O)CCCN1C(=O)CCC1=O
    -40.8, 104.0, 102.0, -7.6
61: O=C(CSc1nnc2c(n1)CCCC2)c1ccc2c(c1)OCCO2
    9.0, 103.0, 101.0, 6.5
62: Cc1ccc(NC(=O)N2Cc3cccn3-c3cccnc32)c(C)c1
    -5.5, 101.0, 104.0, 22.1
63: O=C(O)c1ccccc1-c1c2cc(Br)c(=O)cc-2oc2[c]([Hg])c(O)c(Br)cc12
    -1.9&-0.3, 70.0&65.0, 187.0&190.0, 103.8*
64: CN(C)c1nc(OC(C(F)(F)F)C(F)(F)F)nc(N(c2ccccc2)c2ccccc2)n1
    -23.3, 101.0, 93.0, ·
65: N#CCCN(Cn1nnc2ccccc21)c1ccccc1
    16.3, 99.0, 103.0, 3.5
66: CC(C)(C)NC(=O)CSc1ncnc2c1cnn2-c1ccccc1
    -5.2, 101.0, 111.0, -47.0
67: NS(=O)(=O)c1ccc(CCNC(=O)c2ccc(Cn3c(=O)[nH]c4ccccc4c3=O)cc2)cc1
    -26.6, 105.0, 102.0, 12.1
68: Cc1cc2occ(CC(=O)N(C)C)c2cc1Cl
    -27.7, 104.0, 104.0, -5.8
69: CC1(C(=O)c2ccccc2)C2c3cc(Br)ccc3OC(=O)C21C(=O)N1CCCCC1 (configuration not stated)
    -22.4, 103.0, 106.0, -5.7
70: CC1(C)N=C(c2ccccc2)C(=O)N1CC(=O)Nc1ccccc1
    -12.2, 105.0, 103.0, 5.7
71: CC(C)CN(C(=O)c1ccncc1)c1nc2ccccc2s1
    -7.2, 87.0*, 94.0*, 71.2*
72: Nc1nc(C2COc3ccccc3O2)ncc1S(=O)(=O)c1ccccc1 (configuration not stated)
    -4.6, 108.0, 109.0, 2.1
73: NC(=O)c1nn(CC(=O)N2CCCC2c2ccc3c(c2)OCCCO3)c(=O)c2ccccc12 (configuration not stated)
    6.1, 102.0, 105.0, 2.8
74: CCN(C(=O)C1CCCN1S(=O)(=O)c1ccc2c(c1)n(C)c(=O)c(=O)n2C)c1ccccc1 (configuration not stated)
    10.3, 98.0, 102.0, 14.1
75: CC(=O)Nc1cccc2nsnc12
    -32.5, 101.0, 102.0, 8.7
76: CC1Cc2ccccc2N1C(=O)/C=C/c1cccs1 (configuration not stated)
    -16.0, 105.0, 107.0, 18.4
77: CN1C(=O)C(C(N)=O)=C(N)C12CCCC2
    -30.5, 105.0, 107.0, -7.6
78: CC(=O)N1CCC(N(C(=O)Nc2cccc(Br)c2)C(C)C)CC1
    -1.4, 103.0, 103.0, -74.7
79: Cc1cc(N(C)C)n2nc(Cc3ccccc3)nc2n1
    -4.9, 101.0, 104.0, 7.8
80: Brc1ccc(CSc2ccc(-c3ccco3)nn2)cc1
    -16.0, 101.0, 105.0, 26.6
81: COc1ccc(Nc2nc3c(C)cccn3c(=O)c2C=NCc2ccccc2)cc1
    -17.6, 103.0, 104.0, -5.0
82: CCc1nc2ccccc2c(N)c1C
    14.1, 90.0*, 95.0*, ·
83: CCc1ccc(C2C(C#N)=C(N)N(N(C)C)C3=C2C(=O)CCC3)cc1 (configuration not stated)
    -10.4, 99.0, 101.0, 4.5
84: O=c1nc(Nc2ccccc2)[nH]c(=O)[nH]1
    -11.3, 104.0, 105.0, ·

Looked up above:
entry 65 in Mtb MbtI inh = 3.5
entry 83 in MenB inh = -10.4
entry 61 in PV pol inh intensity = 101.0
entry 69 in MenB inh = -22.4

In the list so far, 7 contain a Cl atom:
Every second line gives: MenB inh, PV pol inh, PV pol inh intensity, Mtb MbtI inh
6: O=C(Nc1csc(Cc2c(Cl)cccc2Cl)n1)NN1CCOCC1
    7.8, 106.0, 109.0, -9.9
21: CNC(=O)CNC(=O)Nc1ccc(Cl)c(Cl)c1
    -0.3, 103.0, 108.0, 4.3
39: O=c1c(Cl)c(N2CCN(c3ccccc3)CC2)cnn1-c1ccccc1
    4.9, 103.0, 102.0, -2.7
42: O=C(c1cc2c(Cl)ccc3c2n1CCO3)N1CCC(N2CCCCC2)CC1
    -3.5, 102.0, 103.0, -21.9
44: O=C(Nc1ccccc1Cl)c1cc2c(s1)CCC2
    ·, 102.0, 98.0, 4.5
47: O=C(CSc1ccccc1Cl)Nc1ccc(N2CCOCC2)cc1
    ·, 101.0, 102.0, 24.4
68: Cc1cc2occ(CC(=O)N(C)C)c2cc1Cl
    -27.7, 104.0, 104.0, -5.8
